LAP4 TOR yeast – yeast TOR pathway LAP4-GFP modulation. S. cerevisiae LAP4-GFP multiplex, flow cytometry GFP, 3 h; median GFP as percent of DMSO wells. GFP response vs DMSO, % at 10 µM. hit rate 0.34% among 320,000. AID 2023;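 active = GFP response vs DMSO above a set limit, about the screen mean plus 3 SD, cut at about 150% in these data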
RPL19A TOR yeast – yeast TOR pathway RPL19A-GFP modulation; S. cerevisiae RPL19A-GFP strain, flow cytometry, 3 h; active compounds read low; percent response vs DMSO, % at 10 µM; hit rate 0.3% among 330,000;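 active = percent response vs DMSO below 50%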;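 also: median channel GFP fluorescence of the barcoded RPL19A-GFP strain; ratio of sample median GFP to plate DMSO average so 100% = DMSO; lower means less RPL19A-GFP as with rapamycin TOR inhibition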
ZTA DNA inh – blocks Epstein-Barr virus ZTA, an EBNA-1 counter-screen. P03206. ZTA-DNA binding, fluorescence polarization. inhibition, % at 11 µM. hit rate 0.15% among 320,000; in the data active = inhibition above about 33%
Target sequence (P03206 whole entry, looked up): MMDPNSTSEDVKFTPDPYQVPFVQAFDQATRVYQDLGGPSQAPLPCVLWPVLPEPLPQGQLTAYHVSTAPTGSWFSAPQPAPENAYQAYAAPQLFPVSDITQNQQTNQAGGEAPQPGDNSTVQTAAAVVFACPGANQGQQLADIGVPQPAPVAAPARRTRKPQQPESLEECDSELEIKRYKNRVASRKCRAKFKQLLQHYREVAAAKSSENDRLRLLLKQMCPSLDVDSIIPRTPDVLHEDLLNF
MEP2 TOR yeast – modulators of TOR pathway MEP2-GFP in S. cerevisiae; S. cerevisiae MEP2-GFP strain, flow cytometry GFP, 3 h; 100% = DMSO control level; hit rate 0.51% among 330,000; GFP response vs DMSO, % at 10 µM;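 active = GFP response versus DMSO above a set limit, roughly screen mean plus 3 SD, cut at about 180% in these data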;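 also: median GFP fluorescence of the barcode-gated MEP2-GFP cells per well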
Active calls of the source: *; . = not tested or not shown; & = joins results of further samples. Only part of the results is shown; rates above refer to the full screens.

(1) COc1cccc(N2CCN(CC(=O)Nc3ccc(-n4cnnn4)cc3)CC2)c1
(2) Cc1ccc(/C=C/C(=O)c2ccccc2)cc1
(3) CC(C)(C)NC(=O)[C@@H]1C[C@@H]2CCCC[C@@H]2CN1C[C@@H](O)[C@H](Cc1ccccc1)NC(=O)[C@H](CC(N)=O)NC(=O)c1ccc2ccccc2n1
(4) O=C(O)CC(O)C(=O)O (stereo not given)
(5) O=C(O)C1CCN(S(=O)(=O)/C=C/c2ccccc2)CC1
(6) CN1[C@@H]2CC[C@H]1CC(OC(=O)C(CO)c1ccccc1)C2 (stereo not given in full)
(7) C[C@H](CS)C(=O)N1CCC[C@H]1C(=O)O
(8) CNc1ccc([N+](=O)[O-])cc1
(9) CS(=O)(=O)c1ccc([C@@H](O)[C@@H](CF)NC(=O)C(Cl)Cl)cc1
(10) COc1ccc2c(c1)c(CC(=O)O)c(C)n2C(=O)c1ccc(Cl)cc1

Assay by compound,1,2,3,4,5,6,7,8,9,10
LAP4 TOR yeast,108,111,96&99,107,99,101,110,106,125,102
RPL19A TOR yeast,94,114,100&64,99,95,105,102,106,95,104
ZTA DNA inh,1,3,7&-7,-12,-1,8,-11,4,-2,1
MEP2 TOR yeast,93,103,96&161,103,100,102,103,97,100,94

(11) COc1ccc2cc([C@@H](C)C(=O)O)ccc2c1
(12) CC(=O)Oc1c(C)c(C)c2c(c1C)CCC(C)(CCCC(C)CCCC(C)CCCC(C)C)O2 (stereo not given)
(13) CN(C)CCOC(c1ccccc1)c1ccccc1
(14) COc1c2occc2cc2ccc(=O)oc12
(15) CCCCC(CC)C(=O)O (stereo not given)
(16) CN1[C@@H]2CC[C@H]1CC(OC(=O)[C@H](CO)c1ccccc1)C2 (stereo not given in full)
(17) COc1ccc(C[C@H](C)NC[C@@H](O)c2ccc(O)c(NC=O)c2)cc1
(18) COc1ccc(Cn2cc(C(=O)O)c(=O)c3ccccc32)cc1
(19) O=C(NNC(=O)c1ccccc1F)c1cccc(-n2cccc2)c1
(20) CCCCNc1ccc(C(=O)O)cc1

Assay by compound,11,12,13,14,15,16,17,18,19,20
LAP4 TOR yeast,141,102,98&102,102,104,106,106,102,84,122
RPL19A TOR yeast,97,104,106&100,95,101,103,99,100,82,102
ZTA DNA inh,2,-3,0,10,.,-21,20,2,3,-9
MEP2 TOR yeast,100,102,108&95,100,101,96,99,107,85,98

5 entries already listed, sorted by length of the SMILES, highest first.
(17) COc1ccc(C[C@H](C)NC[C@@H](O)c2ccc(O)c(NC=O)c2)cc1
(16) CN1[C@@H]2CC[C@H]1CC(OC(=O)[C@H](CO)c1ccccc1)C2 (stereo not given in full)
(18) COc1ccc(Cn2cc(C(=O)O)c(=O)c3ccccc32)cc1
(11) COc1ccc2cc([C@@H](C)C(=O)O)ccc2c1
(14) COc1c2occc2cc2ccc(=O)oc12

Assay by compound,17,16,18,11,14
LAP4 TOR yeast,106,106,102,141,102
RPL19A TOR yeast,99,103,100,97,95
ZTA DNA inh,20,-21,2,2,10
MEP2 TOR yeast,99,96,107,100,100

Later entries:
(21) O=C(NCc1cccnc1)c1cc(-c2ccco2)on1
(22) Cc1cc(NS(=O)(=O)c2ccc(N)cc2)no1
(23) CC(C)(C(=O)O)c1ccc([C@H](O)CCCN2CCC(C(O)(c3ccccc3)c3ccccc3)CC2)cc1
(24) NCCCC(=O)O

Assay by compound,21,22,23,24
LAP4 TOR yeast,107,92,111,130
RPL19A TOR yeast,104,98,108,102
ZTA DNA inh,-4,-1,7,3
MEP2 TOR yeast,107,95,99,102

Copied from the list.
ZTA DNA inh with `Cc1cc(NS(=O)(=O)c2ccc(N)cc2)no1` : -1
RPL19A TOR yeast with `CC(C)(C(=O)O)c1ccc([C@H](O)CCCN2CCC(C(O)(c3ccccc3)c3ccccc3)CC2)cc1` : 108
MEP2 TOR yeast with `NCCCC(=O)O` : 102
ZTA DNA inh with `O=C(NCc1cccnc1)c1cc(-c2ccco2)on1` : -4

High-throughput results (PubChem)
